LANA-H2A inh: blocks KSHV LANA binding to histone H2A/H2B | inhibition, % (concentration not given with the values) | cell-free LANA-H2A/H2B peptide, fluorescence polarization | actives 0.6% (n = 320,000); in the data active = inhibition mostly above about 10%, no sharp cut-off; inactive = mostly below about 6.7%;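 note: stock transfer was 7.5 nL into about 10 µL; 0% = median of vehicle wells and 100% = median of positive control wells; one replicate is shown; the record names a cut of 25% in any replicate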
B2AR ag: agonists of human beta-2 adrenergic receptor inducing internalization. P07550. Am2.2-beta2AR cells, FAP receptor internalization, flow cytometry; reference of the scale not given here. response, % (test concentration not listed). actives 0.43% (n = 340,000);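 active = response above a set limit, near 3 SD of response in nonfluorescent compounds, cut at about 42% in these data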;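 note: stock transfer was 100 nL into about 11 µL; a reference agonist was the positive control; negative values mostly stem from fluorescent compounds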
HNF4A DNA FP: change in binding of human HNF4 alpha to DNA; P41235; HNF4a-FITC DNA binding, fluorescence polarization, 1 h; activity change, % at 10 µM; actives 0.3% (n = 360,000); in the data active = activity change above about 30%, passing the limit was not always enough;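 note: controls were the assay level and a saturating level of protein; the project sought stronger binding though the title names inhibitors; some compounds called inactive have numbers as strong as hits; positive values seem to mean higher polarization but the record does not say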
Target sequence (P41235 whole entry, looked up): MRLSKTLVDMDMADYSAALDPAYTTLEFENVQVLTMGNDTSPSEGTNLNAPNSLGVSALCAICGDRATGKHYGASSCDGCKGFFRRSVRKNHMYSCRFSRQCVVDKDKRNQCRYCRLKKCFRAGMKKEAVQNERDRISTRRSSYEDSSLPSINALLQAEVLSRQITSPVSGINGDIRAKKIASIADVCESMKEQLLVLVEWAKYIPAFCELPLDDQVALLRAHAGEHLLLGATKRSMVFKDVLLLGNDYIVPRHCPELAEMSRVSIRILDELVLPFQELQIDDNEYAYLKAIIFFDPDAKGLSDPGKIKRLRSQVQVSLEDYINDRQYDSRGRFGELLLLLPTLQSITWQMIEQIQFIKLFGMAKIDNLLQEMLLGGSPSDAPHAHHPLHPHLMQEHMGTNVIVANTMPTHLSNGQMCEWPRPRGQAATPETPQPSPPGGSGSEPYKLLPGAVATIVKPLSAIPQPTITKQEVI
E coli growth: E. coli growth inhibition; Escherichia coli growth, OD600, 23 h; stronger effect = lower value; OD600 absorbance (concentration not given with the values); actives 0.21% (n = 330,000); AID 1053175;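 active = OD600 absorbance below the run mean of sample wells minus 3.6 SD, in any replicate, cut at about 0.56 in these data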;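 note: stock transfer was 300 nL into about 60 µL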
UCH37 DUB inh: human UCH37 deubiquitinating enzyme inhibition; Q9Y5K5; purified proteasome/UCH37, Ub-AMC cleavage fluorescence; inhibition, % (concentration not given with the values); actives 0.33% (n = 330,000); AID 588478;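 active = mean of two replicates above 20%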;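 note: 0% = compound-free wells with enzyme and 100% = wells lacking proteasome; stock transfer was 100 nL into about 20 µL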
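Signal – fluorescence, ex 355 nm, em 460 nm · System – Proteasome-bound UCH37 · Input – 0.15 nM proteasome as dispensed · Timing – 30 min preincubation with enzyme, 25 min cleavage at room temperature · Read-out basis – percent inhibition of cleavage signal versus uninhibited and no-proteasome wells · Medium – Tris-HCl pH 7.4 with ATP-MgCl2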
FGF22 binding: binders of recombinant human FGF22 by thermal shift; actives 1.5% (n = 340,000); AID 651658; SYPRO orange fluorescence; percent of sucrose octasulfate shift, DMSO zero; calls only at 9.99 µM;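 active = melting point raised past a set limit in the mean and every replicate; three in four hits are not shown here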
Target sequence (Q9HCT0 whole entry, looked up): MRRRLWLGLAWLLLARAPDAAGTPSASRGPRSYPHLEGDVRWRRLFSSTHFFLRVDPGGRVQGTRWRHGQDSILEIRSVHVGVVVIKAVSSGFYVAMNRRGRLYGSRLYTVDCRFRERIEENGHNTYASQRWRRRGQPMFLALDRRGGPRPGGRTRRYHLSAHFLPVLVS
ALR inh: inhibitors of human sulfhydryl oxidase ALR | P55789 | purified ALR, DTT oxidation, H2O2 HRP-luminol luminescence | inhibition, % (test concentration not listed) | actives 3.8% (n = 290,000);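 active = mean and each replicate at 75% or more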;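 note: stock transfer was 7.5 nL into about 7.5 µL; 0% = neutral wells and 100% = wells with inactivated enzyme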
Target sequence (P55789 whole entry, looked up): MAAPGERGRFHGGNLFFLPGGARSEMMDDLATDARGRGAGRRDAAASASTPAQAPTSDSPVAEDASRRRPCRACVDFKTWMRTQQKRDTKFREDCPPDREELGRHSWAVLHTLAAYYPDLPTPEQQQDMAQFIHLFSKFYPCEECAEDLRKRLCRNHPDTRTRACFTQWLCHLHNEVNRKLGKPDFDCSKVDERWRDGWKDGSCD
An asterisk follows results filed as active; i = inactive; · = no result given. Some of the compounds tested, so the mix of outcomes need not match the whole.

Under each structure: E coli growth, UCH37 DUB inh, B2AR ag, LANA-H2A inh, FGF22 binding, ALR inh, HNF4A DNA FP
- CS(=O)(=O)c1ccc(NC(=O)c2cccc(S(=O)(=O)N3CCN(Cc4ccccc4)CC3)c2)cc1
 : 0.74, 1.4, -4, -2.0, i, -6, 3.6
- Cc1onc(-c2ccccc2)c1-c1ccc(S(N)(=O)=O)cc1
 : 0.64, 0.2, -4, -1.0, i, -16, 0.8
- Cn1c(CSc2nc3ccc(Br)cc3[nH]2)nc2ccccc21
 : 0.67, -1.4, -4, 6.8, i, -3, -0.2
- O=C(NCC1CC1)C1(C(F)(F)F)C/C(=C\Cc2ccccc2)CCCO1 (stereo unspecified)
 : ·, 3.8, 30, 1.0, i, -17, 1.3
- CC(C)COc1cccc(C(=O)Nc2ccc(N3CCOCC3)cc2N2CCOCC2)c1
 : 0.67, 1.8, -13, -1.2, i, -6, -0.5
- COC(=O)CSc1nc(N)c(C#N)c(-c2ccc(O)cc2)c1C#N
 : 0.69, 0.9, 67*, -2.1, ·, -3, 1.7
- Cc1ccc2nc(C3CCCN(C(=O)NCc4ccccc4)C3)[nH]c2c1 (stereo unspecified)
 : 0.66, 4.1, 8, 1.1, ·, 20, -1.7
- Cc1cc(Br)ccc1NC(=O)CN(C)C(=O)CSC(=S)N1CCCC1
 : 0.68, 3.3, 9, -1.7, i, -7, 6.2
- CCOc1ccccc1C(=O)N(Cc1cccs1)C1CCS(=O)(=O)C1 (stereo unspecified)
 : 0.78, 4.6, -5, -3.3, ·, 3, -3.2
- COCn1c(-c2cccc(Br)c2)nc2ccccc21
 : 0.64, 1.4, -10, 0.0, ·, 3, -0.1
- Cc1ccsc1C(=O)N1CCN(S(=O)(=O)c2cccc(F)c2)CC1
 : 0.65, 1.9, 7, -8.0, i, -4, 1.9
- O=S(=O)(c1ccc(N2CCCC2)cc1)C(F)(F)F
 : 0.64, 1.4, 2, 1.4, ·, -2, -0.3
- O=C(Cc1cccs1)NCc1ccccc1
 : 0.69, 0.0, 4, 3.2, ·, -6, 2.1
- CC(=O)N1CCN(C(=O)c2cc(=O)c3ccccc3o2)CC1
 : 0.7, -0.7, 5, 8.4, i, -1, -1.8
- CC(=O)Oc1ccc(N2C(=O)c3cccc4c([N+](=O)[O-])ccc(c34)C2=O)cc1
 : 0.7, -7.0, 7, -0.9, i, 46, -11
- O=C(CN1CCCCCC1)Nc1cccc([N+](=O)[O-])c1
 : 0.66, 0.4, -5, 0.3, i, 3, 4.7
- CCC(=O)c1ccc(OCC(O)CN2CCN(S(=O)(=O)N3CCCCC3)CC2)cc1 (stereo unspecified)
 : 0.76, 5.8, 1, -0.2, ·, 3, 2.7
- Cc1ccc2nsnc2c1S(=O)(=O)N(Cc1ccco1)Cc1cc2cccc(C)c2[nH]c1=O
 : 0.71, -24, 15, 3.5, i, ·, -1.5
- CC1C2CC(C(CN(C)C)/C2=N/O)C1(C)C (stereo unspecified)
 : ·, ·, 1, 66*, ·, 4, -6.2
- c1ccc2c(N3CCOCC3)nc(-c3ccncc3)nc2c1
 : 0.73, 6.1, 3, -2.6, ·, 0, 0.4
- Cc1ccc(OCC(=O)O/N=C(\N)c2ccccn2)cc1C
 : 0.68, 3.4, 1, 2.0, i, 4, 0.5
- CCC(NC(=O)Cc1c(C)c2ccc(OC)c(C)c2oc1=O)C(=O)NC(Cc1ccc(Cl)cc1)C(=O)O (stereo unspecified)
 : 0.7, -259, 9, -2.0, i, -4, -0.7
- CCCCc1n(CC(=O)c2ccc(Cl)cc2)c2ccccc2[n+]1C
 : 0.7, 4.2, 3, -1.3, i, -16, -3.8
- Cn1c(Cc2cccs2)nnc1SCC(=O)N1CCCc2ccccc21
 : 0.74, 4.7, 0, 3.4, ·, 6, 6.0
- COc1cc(-c2nnc(-c3ccc(S(=O)(=O)c4ccccc4)cc3)o2)cc(OC)c1OC
 : 0.73, -104, 7, ·, ·, ·, -1.5
- COc1cccc(CN2CCN(Cc3nc(C(C)C)cs3)CC2CCO)c1 (stereo unspecified)
 : 0.7, 0.2, 7, -9.9, i, ·, -0.8
- COc1ccccc1NC(=O)c1cc([N+](=O)[O-])ccc1N1CCOCC1
 : 0.74, 6.7, -8, -5.7, i, 1, 1.7
- CSc1ccccc1OCc1cc(C(=O)N(C)CCc2c(C)n[nH]c2C)no1
 : 0.64, 0.0, 6, 5.3, i, -3, 3.3
- CNC(=O)/C(C#N)=C/c1cccc(Oc2ccccc2)c1
 : 0.69, 2.1, 7, -2.2, i, 52, 3.6
- CC1CCCC(NC(=O)C2c3ccccc3C(=O)N2Cc2cccs2)C1C (stereo unspecified)
 : ·, ·, -5, 0.6, i, -2, 4.7

In the list so far, two contain a Cl atom:
Under each structure: E coli growth, UCH37 DUB inh, B2AR ag, LANA-H2A inh, FGF22 binding, ALR inh, HNF4A DNA FP
- CCC(NC(=O)Cc1c(C)c2ccc(OC)c(C)c2oc1=O)C(=O)NC(Cc1ccc(Cl)cc1)C(=O)O (stereo unspecified)
 : 0.7, -259, 9, -2.0, i, -4, -0.7
- CCCCc1n(CC(=O)c2ccc(Cl)cc2)c2ccccc2[n+]1C
 : 0.7, 4.2, 3, -1.3, i, -16, -3.8

New compounds follow.
Under each structure: E coli growth, UCH37 DUB inh, B2AR ag, LANA-H2A inh, FGF22 binding, ALR inh, HNF4A DNA FP
- Cc1ccc(N(CC(=O)NCc2ccc(F)cc2)C(=O)c2snc(C(N)=O)c2N)cc1C
 : 0.69, -112, 1, -6.9, i, ·, -0.6
- COc1ccc(OCC(=O)Nc2cccc(OC)c2)cc1
 : 0.63, 2.1, 5, 7.1, ·, -8, -2.6
- Cc1nn(-c2ccccc2)c2c1C(c1cccc([N+](=O)[O-])c1)N(c1ccccc1)C(=O)N2 (stereo unspecified)
 : 0.66, 1.2, -8, -3.6, ·, 0, 2.3
- O=C(CSc1nc2ccccc2s1)NCC1CCCO1 (stereo unspecified)
 : 0.68, -0.2, -3, -2.8, i, 25, 2.3
- CCOC(=O)c1sc(=S)n(CC)c1NC(=O)C1CC1
 : 0.7, 8.1, 4, 4.8, ·, -4, 2.1
- CC1CCCCC1NC(=O)c1ccco1 (stereo unspecified)
 : 0.66, 0.1, 0, ·, i, ·, -4.3
- Cc1ccccc1N(CC(=O)Nc1ccc(F)cc1)S(C)(=O)=O
 : 0.69, 2.7, 3, 0.7, ·, -5, 2.9
- COC(=O)CC1=C(C)C(=O)CC2C(C)(C)CCCC12C (stereo unspecified)
 : 0.63, 1.2, 5, 5.3, i, -8, 1.1
- O=C(O)c1ccccc1/C=N/N1CCN(C2c3ccccc3-c3ccccc32)CC1
 : ·, ·, -8, -2.8, i, 8, -2.9
- CC(C)CC(=O)Nc1nnc(SCC(=O)Nc2ccc(F)cc2)s1
 : 0.66, 2.1, 0, 11, i, -2, -3.8
- CN1C(=O)c2cccc(NC(=O)Cc3ccccc3)c2C1=O
 : 0.75, -50, 3, -3.7, i, 0, -3.9
- COc1cc(OC)cc(C(=O)NNC(=O)Cc2cccs2)c1
 : 0.67, -0.4, 10, -6.3, i, ·, 4.8
- COc1ccccc1OCCCCn1ncc2ccc(OC)c(OC)c2c1=O
 : 0.67, -1.7, 3, -2.1, i, -2, 0.8
- N#Cc1ccccc1NCC(=O)N1CCN(S(=O)(=O)c2ccccc2)CC1
 : 0.65, -2.4, 1, 1.6, i, 2, -1.8
- CCOc1ccccc1CN1CCN(Cc2c[nH]c3ccccc23)CC1CCO (stereo unspecified)
 : 0.67, 5.3, 4, 5.8, i, -4, 3.8
- Fc1ccc(N/N=C(/c2ccccc2)c2ccccn2)cc1
 : ·, ·, -1, 3.7, ·, 99*, 4.2
- Cc1cc(NC(=O)C2Oc3ccccc3OC2C)no1 (stereo unspecified)
 : 0.71, 1.8, 4, 1.7, i, ·, -6.2
- O=c1cc(-c2ccc(O)cc2)oc2c(C3OCC(O)C(O)C3O)c(O)c(C3OC(CO)C(O)C(O)C3O)c(O)c12 (stereo unspecified)
 : 0.76, 4.8, -1, -1.6, i, 20, 3.0
- O=C1[C@@H]2[C@@H]3C[C@@H]([C@H]4ON=C(c5ccc(OCc6ccccc6)cc5)[C@@H]34)[C@@H]2C(=O)N1c1ccc2c(c1)OCO2
 : 0.7, -3.4, -1, 0.9, i, -49, -0.4
- O=S(=O)(NC1CCCCC1N1CCN(c2ccccc2F)CC1)c1ccccc1 (stereo unspecified)
 : 0.68, -0.4, 6, -4.5, i, -12, -2.2

Reprinted at random: two compounds from above, in no set order.
Under each structure: E coli growth, UCH37 DUB inh, B2AR ag, LANA-H2A inh, FGF22 binding, ALR inh, HNF4A DNA FP
- Cc1cc(NC(=O)C2Oc3ccccc3OC2C)no1 (stereo unspecified)
 : 0.71, 1.8, 4, 1.7, i, ·, -6.2
- O=c1cc(-c2ccc(O)cc2)oc2c(C3OCC(O)C(O)C3O)c(O)c(C3OC(CO)C(O)C(O)C3O)c(O)c12 (stereo unspecified)
 : 0.76, 4.8, -1, -1.6, i, 20, 3.0

Entries of single compounds, quoted from the list. Order of values: E coli growth | UCH37 DUB inh | B2AR ag | LANA-H2A inh | FGF22 binding | ALR inh | HNF4A DNA FP
Record of O=S(=O)(c1ccc(N2CCCC2)cc1)C(F)(F)F : 0.64 | 1.4 | 2 | 1.4 | · | -2 | -0.3
Record of CNC(=O)/C(C#N)=C/c1cccc(Oc2ccccc2)c1 : 0.69 | 2.1 | 7 | -2.2 | i | 52 | 3.6
Record of CC1C2CC(C(CN(C)C)/C2=N/O)C1(C)C (stereo unspecified) : · | · | 1 | 66* | · | 4 | -6.2

Next structures
Under each structure: E coli growth, UCH37 DUB inh, B2AR ag, LANA-H2A inh, FGF22 binding, ALR inh, HNF4A DNA FP
- Cc1cc(C)c(S(=O)(=O)N(CC(=O)O)C2CCCCC2)c(C)c1
 : 0.75, -0.8, -6, 2.0, ·, 3, 2.9
- COc1ccc(Cl)cc1C(=O)NNC(=O)c1csc(N2CCOCC2)n1
 : 0.68, 5.1, -9, 0.5, ·, -2, -2.1
- CN(C)c1cnn(-c2ccccc2)c(=O)c1Cl
 : 0.69, 6.8, 2, -0.3, i, 0, -0.8
- Oc1ccc2c(ccc3[nH]cnc32)c1
 : 0.67, 4.3, 2, 3.2, i, ·, 7.9
- Cc1ccc(-n2c(SCC(=O)NCc3ccco3)nc3sc(C)c(C)c3c2=O)cc1
 : 0.74, -15, -2, 0.9, ·, -18, 0.6
- COc1ccc(CNC(=O)C2CCCN2C(=O)NCc2ccccc2)cc1 (stereo unspecified)
 : 0.68, 1.6, -9, 2.5, i, -3, 3.8
- COc1ccccc1N1Cc2ccc(OC)c(OC)c2C1=O
 : 0.69, 4.5, -1, -5.1, i, -15, -2.7
- COc1ccc(N(C(=O)c2ccc(S(=O)(=O)N3CCOCC3)cc2)C2C=CS(=O)(=O)C2)cc1 (stereo unspecified)
 : 0.63, 2.4, 9, -0.5, ·, -5, 0.7
- Cc1cccn2c(=O)c(/C=C(\C#N)C(=O)NC3CCS(=O)(=O)C3)c(Oc3ccc(F)cc3)nc12 (stereo unspecified)
 : 0.7, -35, -10, 2.7, i, 16, -2.1
- Cc1cc(Cl)cc(Cl)c1OCCOc1cccc2cccnc12
 : 0.75, 1.7, -13, -2.7, ·, 16, -3.7
- COC(=O)C1=C(N)Oc2cc(C)[nH]c(=O)c2C1c1ccccc1OC (stereo unspecified)
 : 0.69, 2.4, 1, 3.6, i, -6, 1.1
- O=[N+]([O-])c1cc2c(cc1Br)CCN2
 : 0.65, 3.8, -1, 1.4, i, 15, 1.7
- COc1ccc(CN=C(C#N)C2=C(O)c3ccccc3C2=O)cc1
 : 0.68, 3.8, 4, -9.0, i, -8, 2.9
- O=C(/C=C/c1ccc(F)cc1)N1CCc2ccccc2C1
 : 0.68, 5.5, -10, 3.3, i, ·, -0.8

Compound activity as filed in PubChem.
